Source: PubChem
KCNQ2 enhance = enhances the rat KCNQ2 potassium channel. CHO-K1 KCNQ2, FluxOR thallium flux fluorescence; stronger effect = higher value. B-score at 10 µM. AID 2239. 310,000 compounds, 0.54% hits. O88943;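 active means fluorescence ratio B-score at least 3 SD of library B-scores, with initial fluorescence B-score within 3 SD, cut at about 5.3 in these data; same plate scores as AID 2156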;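 further: B-score of peak minus minimum over baseline fluorescence ratio after K+ and Tl+ stimulus; positive B-score means potentiation of KCNQ2 with more thallium influx and brighter signal; only the inactives scoring about 0 or higher are listed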
Target sequence (O88943 whole entry, looked up): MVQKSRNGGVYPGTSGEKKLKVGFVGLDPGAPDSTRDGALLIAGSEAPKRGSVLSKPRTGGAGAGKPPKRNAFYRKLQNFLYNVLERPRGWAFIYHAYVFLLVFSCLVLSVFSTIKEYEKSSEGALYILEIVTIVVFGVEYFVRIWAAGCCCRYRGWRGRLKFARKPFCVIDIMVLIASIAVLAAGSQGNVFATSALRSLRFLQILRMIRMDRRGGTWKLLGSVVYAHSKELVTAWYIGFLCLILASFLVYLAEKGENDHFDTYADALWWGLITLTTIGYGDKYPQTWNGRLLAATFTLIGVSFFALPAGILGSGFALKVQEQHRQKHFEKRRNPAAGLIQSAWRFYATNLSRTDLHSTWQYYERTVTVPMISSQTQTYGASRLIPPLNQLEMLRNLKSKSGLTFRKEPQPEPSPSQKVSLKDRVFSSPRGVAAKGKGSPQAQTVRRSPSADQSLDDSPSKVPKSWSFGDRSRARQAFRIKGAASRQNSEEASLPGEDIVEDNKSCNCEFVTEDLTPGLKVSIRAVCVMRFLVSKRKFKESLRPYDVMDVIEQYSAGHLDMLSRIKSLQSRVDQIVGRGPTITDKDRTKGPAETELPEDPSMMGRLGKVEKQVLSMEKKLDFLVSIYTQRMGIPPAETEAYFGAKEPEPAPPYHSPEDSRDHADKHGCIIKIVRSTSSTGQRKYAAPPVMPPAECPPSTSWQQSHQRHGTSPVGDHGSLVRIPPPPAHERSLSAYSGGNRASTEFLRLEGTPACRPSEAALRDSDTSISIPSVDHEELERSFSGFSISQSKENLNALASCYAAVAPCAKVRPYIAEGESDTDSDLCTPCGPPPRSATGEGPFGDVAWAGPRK
KCNQ2 enhance baseline = also measured in KCNQ2 enhance; calls as there; B-score; compound at 10 µM; measured here: initial fluorescence intensity artifact check;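 brightness before thallium and not channel activity; 0 = typical well and far values either way flag optical interference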
The depositor's hits bear a star.

CCN1CCN(C(C(=O)NC2CCCC2)c2cc3c(cc2[N+](=O)[O-])OCO3)CC1 (stereo not given) was read as KCNQ2 enhance 0.68 and KCNQ2 enhance baseline 0.24.
Screening CCc1cc(=O)oc2cc(OCC(=O)N3CCCc4ccccc43)ccc12 returned KCNQ2 enhance 0.87 and KCNQ2 enhance baseline -1.8.
`Cc1ccc(S(=O)(=O)N(C)C)cc1NC(=O)CN1C(=O)NC2(CCCCCC2)C1=O` gave KCNQ2 enhance 0.97 and KCNQ2 enhance baseline -0.6.
For COCCCNC(=S)Nc1ccc2nc(N3CCOCC3)cc(C)c2c1 the results were KCNQ2 enhance 0.27 and KCNQ2 enhance baseline 2.8.
For O=C(NCc1ccc2c(c1)OCO2)c1ccc(COc2cc(Cl)ccc2Cl)o1 the results were KCNQ2 enhance 0.03 and KCNQ2 enhance baseline -0.99.
`CS(=O)(=O)c1sc(C#N)c2c1C(=O)CC(c1ccccc1)C2` (stereo not given) gave KCNQ2 enhance 0.55 and KCNQ2 enhance baseline 0.43.
For O=S1(=O)CCOCCN1Cc1ccccc1 the results were KCNQ2 enhance 0.03 and KCNQ2 enhance baseline -1.2.
Screening CC(C)[C@H](NC(N)=O)C(=O)Nc1ccc(Oc2ccccc2)cc1 returned KCNQ2 enhance 3.1 and KCNQ2 enhance baseline 0.59.
Screening Cc1ccc(C)c(SCC(=O)OCC(=O)c2ccco2)c1 returned KCNQ2 enhance 0.48 and KCNQ2 enhance baseline -0.9.
CCn1c(=O)n(CC)c2cc(N3CCCC3)c(NC(=O)c3ccccc3OC)cc21 was read as KCNQ2 enhance 0.4 and KCNQ2 enhance baseline -0.36.
`CCOC(=O)c1sc(NC(=O)c2cc3n(n2)C(C(F)(F)F)CC(c2ccccc2)N3)c(C(=O)OCC)c1C` (stereo not given) gave KCNQ2 enhance 0.6 and KCNQ2 enhance baseline -1.1.
Screening COc1cc2c(cc1O)C(Cc1ccc(O)cc1)[N+](C)([O-])CC2 (stereo not given) returned KCNQ2 enhance 1 and KCNQ2 enhance baseline 1.1.

Overlap with the part before: two entries, followed by the next part.
`CCOC(=O)c1sc(NC(=O)c2cc3n(n2)C(C(F)(F)F)CC(c2ccccc2)N3)c(C(=O)OCC)c1C` (stereo not given) gave KCNQ2 enhance 0.6 and KCNQ2 enhance baseline -1.1.
Screening COc1cc2c(cc1O)C(Cc1ccc(O)cc1)[N+](C)([O-])CC2 (stereo not given) returned KCNQ2 enhance 1 and KCNQ2 enhance baseline 1.1.
Screening O=C(CCCc1ccccc1)N1CCN(C2CCCCC2)CC1 returned KCNQ2 enhance 1.9 and KCNQ2 enhance baseline 0.06.
For COc1cccc(C2NC(=O)N(CCCC(=O)O)C(C)=C2C(=O)OCc2ccccc2)c1 (stereo not given) the results were KCNQ2 enhance 0.19 and KCNQ2 enhance baseline 0.04.
`CCn1c(SCC(=O)NCc2ccc3c(c2)OCO3)nnc1-c1c[nH]c2ccccc12` gave KCNQ2 enhance 0.83 and KCNQ2 enhance baseline -0.85.
For CCCc1ccc(-c2ccc(/C=C/C(=O)O)cc2)nc1 the results were KCNQ2 enhance 2.8 and KCNQ2 enhance baseline -3.
Screening CC(=O)N1CCN(c2ccccc2NC(=O)c2ccco2)CC1 returned KCNQ2 enhance 2.6 and KCNQ2 enhance baseline -0.49.
COc1ccc(CNc2oc(C)nc2C#N)cc1 was read as KCNQ2 enhance 0.39 and KCNQ2 enhance baseline 0.
COc1ccc(Cl)cc1N=Cc1c(O)c2ccccc2oc1=O was read as KCNQ2 enhance 3.5 and KCNQ2 enhance baseline 2.1.
For CNC(=O)c1c(NC(=O)C2=COCCO2)sc2c1CCC(C)C2 (stereo not given) the results were KCNQ2 enhance 1.1 and KCNQ2 enhance baseline -0.02.
`Cn1c(=N)n(CC(O)c2ccco2)c2ccccc21` (stereo not given) gave KCNQ2 enhance 0.56 and KCNQ2 enhance baseline 0.18.
For NC(=O)c1cc2ccccc2o/c1=N\NC(=O)c1ccccc1O the results were KCNQ2 enhance 0.22 and KCNQ2 enhance baseline -1.7.
`Cc1ccc(/C=C/C(=O)OC(C)C(=O)NC2CCCCC2C)o1` (stereo not given) gave KCNQ2 enhance 0.03 and KCNQ2 enhance baseline -0.68.
Screening CN(C)S(=O)(=O)c1cccc(NC(=O)c2ccc3nccnc3c2)c1 returned KCNQ2 enhance 1.8 and KCNQ2 enhance baseline 0.43.
O=C(COC(=O)c1cc(F)cc(F)c1)NCCCc1ccccc1 was read as KCNQ2 enhance 1.4 and KCNQ2 enhance baseline -0.07.
For c1ccc(CCSc2ncnc3nc[nH]c23)cc1 the results were KCNQ2 enhance 1.3 and KCNQ2 enhance baseline 1.2.
Screening COc1cc(O)c(C(CCN2CCCC2)c2ccc3c(c2)OCO3)c(OC)c1 (stereo not given) returned KCNQ2 enhance 0.77 and KCNQ2 enhance baseline -1.2.
CC(=O)N1CCc2cc(S(=O)(=O)CCC(=O)N3CCc4ccccc4C3)ccc21 was read as KCNQ2 enhance 0.3 and KCNQ2 enhance baseline 0.97.
Screening O=C(Nc1nnc(Cc2ccc(Cl)cc2)s1)C1CCCO1 (stereo not given) returned KCNQ2 enhance 0.12 and KCNQ2 enhance baseline -0.74.
For CCCCNC(=O)CCC(=O)Nc1ccc2nc(N3CCN(C)CC3)cc(C)c2c1 the results were KCNQ2 enhance 1 and KCNQ2 enhance baseline -0.93.
Screening O=C(Nc1ccon1)c1ccc(N2CCCCC2)c([N+](=O)[O-])c1 returned KCNQ2 enhance 0.02 and KCNQ2 enhance baseline 0.54.
Screening CCOC(=O)c1cc2c(=O)n3ccccc3nc2n(CCOC)c1=NC(=O)c1ccncc1 returned KCNQ2 enhance 0.52 and KCNQ2 enhance baseline 0.09.
`COc1ccc(C2(C(=O)Nc3cc(C)on3)CCOCC2)cc1` gave KCNQ2 enhance 0.47 and KCNQ2 enhance baseline 0.75.
`CC(=O)c1c(C)n(C)c2ccc(OC(=O)c3ccc([N+](=O)[O-])cc3)cc12` gave KCNQ2 enhance 1.2 and KCNQ2 enhance baseline -1.3.
Screening O=C(Nc1ccc(S(=O)(=O)NCc2ccco2)cc1)c1ccc2ccccc2n1 returned KCNQ2 enhance 1.5 and KCNQ2 enhance baseline -2.2.
Screening Cc1ccc(CCNC(=O)C2CCN(S(=O)(=O)c3ccc4nc5c(c(C(=O)O)c4c3)CCCC5)CC2)cc1 returned KCNQ2 enhance 0.94 and KCNQ2 enhance baseline -1.1.
Screening COc1cc2c(cc1O)[C@H](Cc1ccc(Oc3cc(C[C@@H]4NCCc5cc(OC)c(O)cc54)ccc3O)cc1)NCC2 returned KCNQ2 enhance 0.62 and KCNQ2 enhance baseline 1.8.
O=[N+]([O-])c1ccc(N2CCN(c3ccccc3Cl)CC2)cn1 was read as KCNQ2 enhance 0.02 and KCNQ2 enhance baseline 0.05.
Cc1ccn(C(=O)c2ccc(NC(=O)CC(C)C)cc2)n1 was read as KCNQ2 enhance 0.14 and KCNQ2 enhance baseline 1.4.
CCOc1cc2[nH]c(=S)n(CCCC(=O)NCc3ccccn3)c(=O)c2cc1OCC was read as KCNQ2 enhance 0.23 and KCNQ2 enhance baseline -0.83.
Screening Cc1cc(N2C(=O)C3C4C=CC(C4)C3C2=O)ccc1Br (stereo not given) returned KCNQ2 enhance 1 and KCNQ2 enhance baseline -1.6.
NS(=O)(=O)c1ccc(NCc2c(F)cccc2Cl)cc1 was read as KCNQ2 enhance 0.4 and KCNQ2 enhance baseline -3.5.
`CC1CN(C2CCCCC2)c2nc3c(c(=O)n(C)c(=O)n3C)n2C1` (stereo not given) gave KCNQ2 enhance 0.38 and KCNQ2 enhance baseline 1.2.
CCS(=O)(=O)Nc1ccc(C2=NN(S(C)(=O)=O)C(c3cccs3)C2)cc1 (stereo not given) was read as KCNQ2 enhance 1.1 and KCNQ2 enhance baseline -1.2.
For CN1C(=O)CC(N2CCN(C(c3ccccc3)c3ccccc3)CC2)C1=O (stereo not given) the results were KCNQ2 enhance 0.79 and KCNQ2 enhance baseline 1.6.
For CCOc1ccc(NC(=O)CNC(=O)c2nn(-c3ccc(OC)cc3)c(=O)c3ccccc23)cc1 the results were KCNQ2 enhance 0.53 and KCNQ2 enhance baseline 1.1.
`COc1ccc(Cl)cc1NC(=O)COC(=O)/C=C/c1c(C)nn(C2CCS(=O)(=O)C2)c1Cl` (stereo not given) gave KCNQ2 enhance 0.48 and KCNQ2 enhance baseline 0.21.
`COc1ccccc1C(C)NS(=O)(=O)c1ccc(Cl)nc1` (stereo not given) gave KCNQ2 enhance 1.8 and KCNQ2 enhance baseline 1.2.
Screening CCN(CC)Cc1c(-c2ccccc2)[nH]c2ccc(C)cc2c1=O returned KCNQ2 enhance 0.09 and KCNQ2 enhance baseline 0.65.
Cc1cc(NC(=O)CSc2nc3ccccc3n2CCC#N)no1 was read as KCNQ2 enhance 1.9 and KCNQ2 enhance baseline -1.1.
Cc1ccc(C(=O)NNC(=O)Cc2cccs2)cc1 was read as KCNQ2 enhance 0.02 and KCNQ2 enhance baseline -0.17.
`CC(C)(C)SC(=O)C[C@@H]1NS(=O)(=O)OC2CCCCC21` (stereo not given in full) gave KCNQ2 enhance 0.84 and KCNQ2 enhance baseline -0.61.
`O=C(COC(=O)COc1ccc(Br)cc1)Nc1cccnc1Cl` gave KCNQ2 enhance 0.4 and KCNQ2 enhance baseline 1.4.
Screening CCCN(C(=O)CCOc1ccc(C(C)(C)C)cc1)c1c(N)n(Cc2ccccc2)c(=O)[nH]c1=O returned KCNQ2 enhance 1 and KCNQ2 enhance baseline -2.2.
For Cc1cc(Br)ccc1SCC(=O)OCC(=O)Nc1ccccc1C#N the results were KCNQ2 enhance 0.67 and KCNQ2 enhance baseline -1.4.
`CCNS(=O)(=O)c1c(C)cc(N2CCCC2=O)cc1C` gave KCNQ2 enhance 0.2 and KCNQ2 enhance baseline 1.8.
CCCCN(C)CCCNC(=O)c1cccc(N2CCCC2=O)c1 was read as KCNQ2 enhance 1.6 and KCNQ2 enhance baseline -2.5.
Screening O=C(NC1CC1)C1CCN(c2nc3ccccc3s2)CC1 returned KCNQ2 enhance 0.75 and KCNQ2 enhance baseline -0.09.
`Cc1ccc2c(c1)C1C=CCC1C(C(=O)NCCCN1CCOCC1)N2` (stereo not given) gave KCNQ2 enhance 0.14 and KCNQ2 enhance baseline 1.4.
Cc1nnc(SCCn2c(N3CCN(Cc4ccccc4)CC3)nc3c2c(=O)[nH]c(=O)n3C)s1 was read as KCNQ2 enhance 1.5 and KCNQ2 enhance baseline 1.6.
`O=Cc1cccc(OC(=O)Nc2ccccc2)c1` gave KCNQ2 enhance 0.12 and KCNQ2 enhance baseline 0.46.
`CC(C)(C)C(=O)Nc1nc2c(c(=O)[nH]1)CCCC2` gave KCNQ2 enhance 1.3 and KCNQ2 enhance baseline 0.51.
For CCOC(=O)CNC(=O)CSc1nnc(COc2ccc(Cl)cc2)n1CC the results were KCNQ2 enhance 0.94 and KCNQ2 enhance baseline -0.29.
For CC1(C)NC(=O)N(CC(O)COc2ccccc2-c2ccccc2)C1=O (stereo not given) the results were KCNQ2 enhance 0.03 and KCNQ2 enhance baseline 0.37.
For COc1cc(C2C=C(C34CC5CC(CC(C5)C3)C4)NC(=S)N2)cc(OC)c1OC (stereo not given) the results were KCNQ2 enhance 0.05 and KCNQ2 enhance baseline -0.74.
CSc1cccc(CN2CCCC(CNC(=O)c3ccc(F)cc3)C2)c1 (stereo not given) was read as KCNQ2 enhance 1.9 and KCNQ2 enhance baseline 0.03.
For O=C(NC1CCCN(c2ccc(C(F)(F)F)cn2)C1)c1ccncc1 (stereo not given) the results were KCNQ2 enhance 0.99 and KCNQ2 enhance baseline 1.9.
CCC(C)n1c(=S)[nH]c2c(sc3ccc([N+](=O)[O-])cc32)c1=O (stereo not given) was read as KCNQ2 enhance 25* and KCNQ2 enhance baseline -0.75*.
For O=C(c1ccc(Cl)c(NC2=NC3CS(=O)(=O)CC3S2)c1)N1CCN(c2ccc(F)cc2)CC1 (stereo not given) the results were KCNQ2 enhance 1.4 and KCNQ2 enhance baseline 0.03.
`Cc1ccc(NC(=O)Cc2n[nH]c(=S)n2C)cc1` gave KCNQ2 enhance 0.69 and KCNQ2 enhance baseline -4.2.
`Cc1ccccc1NC(=S)N1CCOCC1` gave KCNQ2 enhance 0.06 and KCNQ2 enhance baseline 0.1.
Cn1c(=O)n(C)c2cc(NC(=O)COc3ccccc3)ccc21 was read as KCNQ2 enhance 1.6 and KCNQ2 enhance baseline -0.34.

Random excerpt: 5 entries already listed.
`CC(=O)c1c(C)n(C)c2ccc(OC(=O)c3ccc([N+](=O)[O-])cc3)cc12` gave KCNQ2 enhance 1.2 and KCNQ2 enhance baseline -1.3.
For O=C(NC1CCCN(c2ccc(C(F)(F)F)cn2)C1)c1ccncc1 (stereo not given) the results were KCNQ2 enhance 0.99 and KCNQ2 enhance baseline 1.9.
`COc1ccc(C2(C(=O)Nc3cc(C)on3)CCOCC2)cc1` gave KCNQ2 enhance 0.47 and KCNQ2 enhance baseline 0.75.
`CCNS(=O)(=O)c1c(C)cc(N2CCCC2=O)cc1C` gave KCNQ2 enhance 0.2 and KCNQ2 enhance baseline 1.8.
`Cc1ccc2c(c1)C1C=CCC1C(C(=O)NCCCN1CCOCC1)N2` (stereo not given) gave KCNQ2 enhance 0.14 and KCNQ2 enhance baseline 1.4.

Later entries
Screening Cc1c(N/C=C(\Cl)C(=O)C(F)(F)F)c(=O)n(-c2ccccc2)n1C returned KCNQ2 enhance 0.83 and KCNQ2 enhance baseline 0.2.
`Cn1c(C(=O)NCCN2CCOCC2)cc2sccc21` gave KCNQ2 enhance 0.26 and KCNQ2 enhance baseline 0.12.
`COc1ccc2nc(NNC(=O)c3cc(=O)c4ccccc4o3)sc2c1` gave KCNQ2 enhance 13* and KCNQ2 enhance baseline -0.15*.
Screening Cc1ccc(NNC(=O)c2ccno2)cc1C returned KCNQ2 enhance 0.9 and KCNQ2 enhance baseline -1.2.

A run of entries of the results above:
`COc1ccc2nc(NNC(=O)c3cc(=O)c4ccccc4o3)sc2c1` gave KCNQ2 enhance 13* and KCNQ2 enhance baseline -0.15*.
Screening Cc1ccc(NNC(=O)c2ccno2)cc1C returned KCNQ2 enhance 0.9 and KCNQ2 enhance baseline -1.2.

An excerpt. The share of hits here may be higher or lower than overall.
